Compound activity from PubChem BioAssay.
HNF4A DNA FP: change in binding of human HNF4 alpha to DNA | actives 0.3% (n = 360,000) | activity change, % at 10 µM | AID 1224865 | HNF4a-FITC DNA binding, fluorescence polarization, 1 h | P41235; in the data active = activity change above about 30%, passing the limit was not always enough;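 also: controls were the assay level and a saturating level of protein; the project sought stronger binding though the title names inhibitors; some compounds called inactive have numbers as strong as hits; positive values seem to mean higher polarization but the record does not say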
Target sequence (P41235 whole entry, looked up): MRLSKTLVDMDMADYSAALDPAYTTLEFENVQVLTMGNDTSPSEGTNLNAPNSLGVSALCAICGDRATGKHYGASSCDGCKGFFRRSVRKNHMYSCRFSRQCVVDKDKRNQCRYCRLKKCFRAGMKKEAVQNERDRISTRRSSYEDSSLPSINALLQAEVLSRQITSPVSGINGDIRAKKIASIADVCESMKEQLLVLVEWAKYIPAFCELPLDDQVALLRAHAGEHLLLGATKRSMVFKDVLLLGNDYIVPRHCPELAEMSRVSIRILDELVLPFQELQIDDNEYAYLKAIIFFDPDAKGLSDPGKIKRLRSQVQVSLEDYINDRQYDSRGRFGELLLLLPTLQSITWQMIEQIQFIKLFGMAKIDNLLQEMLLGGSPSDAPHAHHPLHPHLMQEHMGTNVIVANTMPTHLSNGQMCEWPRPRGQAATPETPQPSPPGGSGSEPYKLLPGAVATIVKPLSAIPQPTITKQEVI
B2AR ag: activates human beta-2 adrenergic receptor causing internalization | P07550 | Am2.2-beta2AR cells, FAP receptor internalization, flow cytometry; reference of the scale not given here | response, % (concentration not given with the values) | actives 0.43% (n = 340,000) | AID 504454;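 active = response above a set limit, near 3 SD of response in nonfluorescent compounds, cut at about 42% in these data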;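 also: stock transfer was 100 nL into about 11 µL; a reference agonist was the positive control; negative values mostly stem from fluorescent compounds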
Target sequence (P07550 whole entry, looked up): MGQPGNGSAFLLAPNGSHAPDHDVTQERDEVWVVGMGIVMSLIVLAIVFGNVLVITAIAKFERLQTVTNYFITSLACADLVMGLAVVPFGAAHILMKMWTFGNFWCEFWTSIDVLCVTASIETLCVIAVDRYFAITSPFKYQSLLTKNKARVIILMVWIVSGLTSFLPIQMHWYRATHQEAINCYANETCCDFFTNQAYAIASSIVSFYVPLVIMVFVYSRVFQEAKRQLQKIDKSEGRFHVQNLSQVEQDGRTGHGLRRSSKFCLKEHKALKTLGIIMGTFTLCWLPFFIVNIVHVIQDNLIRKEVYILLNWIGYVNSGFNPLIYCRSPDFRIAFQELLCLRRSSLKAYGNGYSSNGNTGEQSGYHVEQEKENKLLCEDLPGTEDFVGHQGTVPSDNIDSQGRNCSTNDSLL
ALR inh: human ALR oxidase inhibition via reduced H2O2; purified ALR, DTT oxidation, H2O2 HRP-luminol luminescence; actives 3.8% (n = 290,000); inhibition, % (no concentration beside the values);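 active = mean and each replicate at 75% or more; inconclusive = only one of the two met; inactive = neither met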;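 also: stock transfer was 7.5 nL into about 7.5 µL; 0% = neutral wells and 100% = wells with inactivated enzyme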
Calb FLC: affects C. albicans growth with fluconazole | actives 0.57% (n = 300,000) | C. albicans CaCi-2 (fluconazole-resistant clinical isolate) + fluconazole, Alamar Blue growth, 48 h | growth inhibition, % (concentration not given with the values);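 active = most replicates above 75%; inconclusive = exactly half above 75%; inactive = most below 75%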;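 also: all wells also contain fluconazole at 8 µg/ml as a sub-toxic cotreatment; 0% = median of DMSO wells and 100% = median of geldanamycin control wells; wells of about 8 µL received 7.5 nL stock; the first replicate is given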
LANA-H2A inh: blocks KSHV LANA binding to histone H2A/H2B; Q9QR71; cell-free LANA-H2A/H2B peptide, fluorescence polarization; inhibition, % (test concentration not listed); actives 0.6% (n = 320,000); AID 2629; in the data active = inhibition mostly above about 10%, no sharp cut-off; inactive = mostly below about 6.7%;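 also: stock transfer was 7.5 nL into about 10 µL; 0% = median of vehicle wells and 100% = median of positive control wells; one replicate is shown; the record names a cut of 25% in any replicate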
Vif A3G: inhibitors of Vif binding to APOBEC3G peptide, primary screen, biochemical, TR-FRET, GST-Vif 1-94, biotin-A3G peptide, dose response retest (AID 1117319); TR-FRET GST-Vif / biotin-A3G peptide binding; higher % means a stronger effect; test concentration not given here; strong numbers were not always called active; inhibition, %, or IC50 in µM where a hit was titrated; actives 0.57% (n = 260,000);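 active = above the screen mean plus three standard deviations and confirmed in dose response; inconclusive = results disagree or hit not tested in dose response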;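 also: Vif residues 1-94 fused to GST binding biotinylated APOBEC3G peptide 110-148; 0% = full assay without inhibitor and 100% = GST in place of GST-Vif; retest series ran down from 100 µM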
RanGTP-Impb inh: disruptors of Ran-importin-beta complex formation – biochemical, FRET, CFP-Ran, YFP-importin-beta, homogeneous, primary screen. actives 1.1% (n = 300,000). AID 2216. cell-free CFP-Ran/YFP-importin-beta FRET ratio. inhibition, % (test concentration not listed);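 active = most replicates above 15%; inconclusive = exactly half above 15%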;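 also: 0% = DMSO wells and 100% = Ran loaded with GDP instead of GTP; wells of about 40 µL received 100 nL stock; the first replicate is given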
Numbers without * were called inactive; u = inconclusive; x = not tested or not shown.

Sequence of screens – HNF4A DNA FP	B2AR ag	ALR inh	Calb FLC	LANA-H2A inh	Vif A3G	RanGTP-Impb inh
CCOc1cc(NC(=O)c2ccccc2[N+](=O)[O-])c(OCC)cc1NC(=O)CC(C)C
  1.8	-3	7	2	3.0	7%	-0.4
Cc1cc(SCC(=O)N2CCN(C(=O)c3ccco3)CC2)c(C)cc1Br
  1.1	-19	-2	x	45*	-5%	x
COc1ccc(-c2cnnc(N/N=C/c3ccc(OC)c(OC)c3)n2)cc1
  0.1	4	-2	29	2.1	x	-3.7
COc1ccc([C@H]2CC(=O)C=C(c3ccc(C)c4ccccc34)C2)cc1
  5.3	3	-11	x	-0.8	x	x
COc1ccc(NC(=O)CSc2nc3nc(C)cc(C)c3c(=O)[nH]2)cc1OC
  -2.6	13	54	x	-4.0	x	x
O=C1CCC(=O)N1c1ccc(-c2nc3ccccc3s2)cc1
  5.0	7	-7	5	-4.1	x	0.5
C=CCNC(=O)N[C@@H](CCSC)C(=O)OC
  1.7	7	2	14	-3.1	4%	-3.0
Cn1c(Cc2ccccc2)nnc1SCc1cc(=O)n2ccsc2n1
  -0.9	1	-13	-12	-1.2	x	-4.2
O=C(O)c1nc(NCc2ccccc2)ncc1Cl
  0.9	-10	-1	-16	3.6	-1%	3.4
COc1ccc(CNc2ccccn2)c(O)c1
  5.8	-4	x	33	x	x	-5.4
COC(=O)c1ccccc1S(=O)(=O)N1CCC(C(=O)Nc2ccc(N3CCOCC3)cc2)CC1
  2.6	12	9	x	-3.4	x	x
C=CCNC(=O)c1ccc(Sc2ccc(C)cc2)c([N+](=O)[O-])c1
  -0.9	2	-3	6	-4.7	3%	1.7
COc1ccccc1CNC(=O)COc1ccccc1C(=O)c1cnn(-c2ccccc2)c1
  5.9	8	-7	x	0.8	-4%	x
CC(C)[C@H](NC(=O)N1CCn2c1nc1ccccc12)C(=O)NC1CCCCC1
  -1.2	-6	17	-43	4.9	x	2.2
O=C(/C=C/c1cn(CC(O)CN2CCOCC2)c2ccccc12)c1cccs1 (stereo not given)
  x	x	-2	-9	-9.4	9%	-31
Cc1ccccc1CCNC(=O)c1cc(C2CC2)nc2c1cnn2C(C)C
  -3.5	9	-2	x	0.5	8%	x
Cc1cc(C)c(S(=O)(=O)c2ccccc2)c(N2CCOCC2)n1
  0.3	5	-24	-34	1.3	-3%	-1.2
Cc1ccc(C(=O)Nc2c3c(nn2-c2ccccc2)CS(=O)(=O)C3)cc1C
  -2.5	6	0	5	-2.7	x	-0.2
Clc1ccc(-c2nnc(CCc3ccccc3)o2)c(Cl)c1
  0.6	-2	0	18	2.3	2%	u
CNC(=O)c1ccsc1NC(=O)CCS(=O)(=O)c1ccc(Cl)cc1
  -2.9	-5	39	19	-1.6	-2%	u
CN1C(=S)NC(C)(C)CC1(C)c1ccc(O)cc1O (stereo not given)
  -3.9	-1	53	11	-2.0	-9%	-1.0
COCCN(C)C(=O)CCc1nnc(Cc2ccc(-c3ccccc3)cc2)o1
  0.2	-3	15	-7	-5.5	-5%	-2.8
Cc1cc(C)c2c3c(sc2n1)C(=O)N(c1ccccc1)CC(=O)N3
  -2.6	-6	-13	3	2.3	-5%	-0.3
O=C(CSc1ccc(F)cc1)Nc1ccc(N2CCOCC2)c(Cl)c1
  0.5	2	1	-4	6.2	x	-1.4
C=CCOc1cccc(CNc2cccc(C(=O)O)c2)c1
  -0.3	-1	10	-13	2.9	17%	-1.3
CCn1nnc(NC(=O)C(C)Oc2ccc(Cl)cc2Cl)n1 (stereo not given)
  0.6	14	9	-20	-9.3	5%	0.6
COC(=O)c1c(NC(=O)c2cnccn2)sc2c1CCC2
  -2.2	-3	-5	-11	0.0	6%	-3.1
COc1ccc(C(=O)Nc2ccc(NC(=O)c3ccco3)cc2)cc1
  0.5	2	-4	-13	-4.3	x	-2.9
CCCc1cc(=O)[nH]c(SCC(=O)Nc2nc3ccc(OCC)cc3s2)n1
  -1.9	9	-8	30	-4.0	0%	-1.8
O=C(Cn1cnc2c(cnn2-c2ccc(F)cc2)c1=O)NCC1CCCO1 (stereo not given)
  1.3	0	3	x	-2.9	0%	x
O=C(Cc1cccc2ccccc12)NCCc1ccccc1
  -0.9	-4	x	1	0.2	2%	-2.7
O=C(CCCc1ccccc1)N1CCc2ccccc21
  6.0	-11	-4	16	-5.2	u	0.3
CCc1cc2ccc(C)cc2nc1SCC(=O)c1ccc(NC(C)=O)cc1
  -2.0	12	-5	13	0.4	25%	3.2
CC(OC(=O)c1cccs1)C(=O)NCC1CCCO1 (stereo not given)
  1.1	2	-3	-3	3.3	-1%	2.5
CCCCC(=O)Nc1cc(OCC)c(NC(=O)c2ccccc2[N+](=O)[O-])cc1OCC
  -1.7	-5	-4	-20	-8.4	6%	0.9
CC(=O)Nc1ccc(C(=O)NNS(=O)(=O)c2ccc(C)cc2)cc1
  0.9	-1	54	-7	-0.7	x	1.2
CCc1nc(CNC(=O)c2cc(OC)c(OC)c(OC)c2)no1
  -1.1	-14	4	-5	0.4	-1%	0.3
CN(C)c1nc(-c2ccccc2)ns1
  -2.0	-4	-3	-1	1.3	0%	-1.0
Cc1cccc(NC(=O)c2cccc(N3C(=O)C4CCC(C)CC4C3=O)c2)c1C (stereo not given)
  1.2	6	2	-1	-7.3	3%	5.0
CCCCOc1cccc(NC(=O)CSc2nccn2C)c1
  0.5	-7	99*	3	-3.2	2%	2.0
Cc1c(C(=O)Nc2ccc(Nc3ccccc3)cc2)cccc1[N+](=O)[O-]
  -7.9	6	70	20	0.7	11%	-0.4
CCOC(=O)c1sc2nc3c(SCCC#N)cc(C(=O)c4cc(F)ccc4O)cn3c(=O)c2c1C
  36	-1	-2	15	0.6	29%	-0.2
Cc1ccc(C)c(S(=O)(=O)Nc2ccc(C(=O)NCCCN3CCCC3=O)cc2)c1
  0.1	-1	-10	-2	1.4	x	6.5
CCOC(=O)c1ccc(NC(=O)CN(C)S(=O)(=O)c2ccc(Br)s2)cc1
  3.2	-5	-2	-4	-8.1	27%	-2.8
CC(=O)Nc1ccc(C2(c3ccc(NC(C)=O)cc3)C(=O)Nc3ccccc32)cc1
  3.5	-1	-11	17	3.0	x	0.1

Record cards, from the list above. Screens in order: HNF4A DNA FP | B2AR ag | ALR inh | Calb FLC | LANA-H2A inh | Vif A3G | RanGTP-Impb inh
Record of `CCOC(=O)c1sc2nc3c(SCCC#N)cc(C(=O)c4cc(F)ccc4O)cn3c(=O)c2c1C` : 36 | -1 | -2 | 15 | 0.6 | 29% | -0.2
Record of `CCc1cc2ccc(C)cc2nc1SCC(=O)c1ccc(NC(C)=O)cc1` : -2.0 | 12 | -5 | 13 | 0.4 | 25% | 3.2
Record of `O=C(Cn1cnc2c(cnn2-c2ccc(F)cc2)c1=O)NCC1CCCO1` (stereo not given) : 1.3 | 0 | 3 | x | -2.9 | 0% | x

Next compounds:
Sequence of screens – HNF4A DNA FP	B2AR ag	ALR inh	Calb FLC	LANA-H2A inh	Vif A3G	RanGTP-Impb inh
COc1ccc(NC(=O)CO/N=C2\CCCc3nonc32)cc1
  -0.5	-1	-9	4	5.5	-5%	3.1
COC(=O)c1ccccc1OC(=O)c1ccc(Br)o1
  -0.3	8	2	14	2.7	-1%	0.7
Cc1c(C(=O)NCCc2ccc(Cl)cc2)sc2nc3n(c(=O)c12)CCC3
  0.0	-8	-10	1	-5.5	u	0.2
CCN1CCN(c2nc(Nc3cccc(F)c3)nc(N)c2[N+](=O)[O-])CC1
  -0.6	-2	-2	11	1.9	-6%	1.4
Cc1cc(NC(=O)CSc2c(C)[nH]c3ccccc23)no1
  0.2	6	95*	-1	6.9	1%	0.6
CCOC(=O)CSc1nc2c(c(=O)n1-c1ccc(OCC)cc1)SCC2
  1.1	-7	-9	-4	-4.6	3%	-1.4
CC(C)(C)CN1CCNC(=O)C1CC(=O)NCCc1cnn(-c2ccccc2)c1 (stereo not given)
  3.5	-6	-14	4	-6.3	x	2.6
O=C(c1cc(-c2ccccc2Cl)nc2ccccc12)N1CCN(c2ccccn2)CC1
  0.1	27	-6	x	1.1	x	x
CCOc1ccc(S(=O)(=O)N2CCCCC2)cc1NC(=O)C1CCC1
  -1.6	0	-9	x	2.9	3%	5.1
O=C(Cn1nc(Cc2cccnc2)c2ccccc2c1=O)Nc1cccnc1Cl
  -5.8	0	-13	-13	0.4	5%	2.9
COc1cc(/C=C2\C(=N)N3N=C(C)SC3=NC2=O)cc(Cl)c1OCCOc1ccc(NC(C)=O)cc1
  1.2	4	-7	4	-4.7	9%	2.8
O=C(c1cc2cc(Br)ccc2o1)N1CCN(c2ccccc2)CC1
  -5.4	-5	-5	12	16*	x	-4.8
CCN1C(=O)/C(=C\N(C)C)S/C1=N\S(=O)(=O)c1ccccc1
  1.7	-14	-15	-5	-2.4	0%	0.1
O=C(O)c1cccc2[nH]c(C(F)(F)F)nc12
  -7.5	-10	0	2	-14	1%	-2.6
CCOc1ccc(C2CC(=O)c3c([nH]c(C(=O)OC)c3C)C2)cc1OC (stereo not given)
  1.7	14	1	-2	3.0	-4%	6.3
CC1Cc2ccccc2N1c1ncnc2c1nnn2Cc1ccccc1 (stereo not given)
  -1.9	5	-8	-12	-1.6	-2%	2.6
COCCn1c(=S)[nH]c2cc(C(=O)N3CCC(C(N)=O)(N4CCCCC4)CC3)ccc2c1=O
  -2.4	2	x	x	-6.2	u	x
COc1cccc(NC(=O)CN(C)C(=O)c2cc3c(s2)CCC3)c1
  x	x	-6	4	-3.9	x	x
CCCOc1ccc(/C=N/NC(=O)c2ccc(Cn3cc([N+](=O)[O-])cn3)o2)cc1
  -0.6	-11	-6	47	1.9	1%	-4.7
CCOc1cc(S(=O)(=O)NCc2ccco2)c(OCC)cc1-n1cnnn1
  -2.3	-1	-6	-2	-2.8	u	-2.1
Cc1cc(C)cc(OCC(=O)OCC(=O)Nc2ccc(Cl)cn2)c1
  1.1	3	-2	20	0.5	u	-0.8
Cc1cc(=O)oc(C)c1C(=O)NCCN(C)Cc1ccccc1
  -0.9	-2	1	-11	1.3	9%	-0.3
Cc1ccc(-c2nnc(NC(=O)CCS(=O)(=O)c3ccccc3)o2)c(C)c1
  4.5	12	x	0	x	-8%	-5.9
CC(C)C(=O)Nc1ccc2c(c1)nc(CCN1CCCCC1)n2C
  1.4	-21	-10	5	3.6	0%	9.7
O=C(Cc1ccc(Cl)cc1)N1CCC2(CC1)NCCc1[nH]cnc12
  2.5	1	0	-2	0.8	x	-0.7
Cc1cc2c(C)nc(N/N=C/c3ccc(F)cc3)nc2o1
  -5.6	-13	31	-43	7.4	-8%	5.5
CCOc1cc(N2CCOCC2)c(OCC)cc1NC(=O)c1ccc(C)s1
  0.1	-3	7	25	-7.6	x	6.5
COc1cc(OC)c(N(C)S(=O)(=O)c2cccc(C(=O)OCC(=O)NCc3ccco3)c2)cc1Cl
  0.2	6	3	-26	-1.7	-4%	-3.5
Cc1ccsc1C1C2=C(CC(C)(C)CC2=O)Nc2ncnn21 (stereo not given)
  -0.3	2	47	-4	-1.9	15%	u
COc1ccc(NC(=O)c2cccc(C#N)c2)cc1NS(=O)(=O)c1ccc(F)cc1
  -1.8	-16	-22	2	-0.2	-8%	4.6
COc1ccc(CC(=O)NC(=S)Nc2ccc(S(=O)(=O)NC(C)(C)C)cc2)cc1
  2.2	10	-1	3	-2.1	2%	3.1

Compounds were not picked by outcome; about 6.3% have a hit in one of these screens.
